Bioassay records from PubChem BioAssay.
2A StopGo – FMDV 2A StopGo reporter, luciferase signal; Potency, µM (top dose mostly 57.9 µM), for inactives: top-dose signal change, negative = less light; AID 1159524; human cells with a luciferase reporter of 2A StopGo recoding; control for the full effect not named in the record; actives 1.2% (n = 410,000); active = well fitted falling curve with a large enough effect; inconclusive = small, poorly fitted or top-dose-only effect; inactive = no such curve, though single readings can be large or run the other way; tested in HEK293T cells; further: on the % scale 0 is the no-effect control and ±100 the full control effect; nearly all actives have a fitted effect of over 45% in size; luciferase light after 4 h
Cruzain inh Det – blocks cruzain activity in presence of Triton detergent; P25779; purified cruzain, Z-FR-AMC fluorescence, 0.01% Triton; Potency, µM, inactives show max response, negative = inhibition, actives largely listed as inhibitors; actives 0.43% (n = 200,000);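 further: plate controls were neutral wells for no effect and buffer without enzyme for full effect; nearly all actives have a fitted effect of over 40% in size; top concentration of the series not given in the record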
Target sequence (P25779 123-467 limits assumed): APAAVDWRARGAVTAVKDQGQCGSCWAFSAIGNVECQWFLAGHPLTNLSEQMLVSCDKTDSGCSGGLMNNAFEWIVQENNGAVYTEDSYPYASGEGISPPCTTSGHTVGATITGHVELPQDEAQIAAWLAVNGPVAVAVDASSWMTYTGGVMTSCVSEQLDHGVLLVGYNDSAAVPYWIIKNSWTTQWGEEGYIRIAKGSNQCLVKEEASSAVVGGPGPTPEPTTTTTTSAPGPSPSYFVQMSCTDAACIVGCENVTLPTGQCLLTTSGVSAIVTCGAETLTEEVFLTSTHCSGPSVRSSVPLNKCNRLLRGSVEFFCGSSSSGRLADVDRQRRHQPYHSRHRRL
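In this qHTS format, compounds are incubated with 1.5 nM cruzain for 15 min at room temperature before 2 uM Z-FR-AMC is added. Release of AMC is followed at 360/450 nm, and progress is taken as the 60 s fluorescence difference.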
RE007 growth inh – less growth of the S. pombe RE007 Vpr strain; S. pombe RE007 Vpr strain, BacTiter-Glo ATP luminescence, 24 h; control for the full effect not named in the record; Potency, µM (top dose mostly 92.2 µM), for inactives: at the top dose activity change, negative = less growth; actives 0.21% (n = 360,000); AID 651644; active = well fitted falling curve with a large enough effect; inconclusive = small, poorly fitted or top-dose-only effect; inactive = no such curve, though single readings can be large or run the other way;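 further: on the % scale 0 is the no-effect control and ±100 the full control effect; nearly all actives have a fitted effect of over 50% in size; the assay follows cell death caused by Vpr and the record does not say whether a fall means rescue or toxicity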
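Fission yeast strain RE007, carrying one chromosomally integrated HIV-1 vpr copy, was seeded at OD 0.01 in PMG+AL medium with 23 nL pinned compound. After 24 h at 30 °C and 99% humidity, viability was read by BacTiter-Glo luminescence.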
LASV entry inh – Lassa virus entry inhibition. Lassa virus pseudotype entry inhibition, cell reporter; control for the full effect not named in the record. Potency, µM (titrated, usually from 37.9 µM), for inactives: top-dose activity change, negative = inhibition, usual class: inhibitors. actives 1.2% (n = 300,000); active means well fitted inhibition curve with a large enough effect; inconclusive means small, poorly fitted or top-dose-only effect, or effect the other way; inactive means flat fitted curve, though single readings scatter; tested in HEK293 cells; further: on the % scale 0 is the no-effect control and ±100 the full control effect; nearly all actives have a fitted effect of over 50% in size; luciferase read-out
SARS PLP yeast – inhibitors of SARS-CoV papain-like protease in yeast | S. cerevisiae expressing SARS-CoV PLpro, growth rescue; control for the full effect not named in the record | Potency, µM (doses to about 32.9 µM), without a hit: at the top dose activity, positive = growth rescue | actives 0.19% (n = 330,000) | AID 485353; active means well fitted rising curve with a large enough effect; inconclusive means small, poorly fitted or top-dose-only effect; inactive means no such curve, though single readings can be large or run the other way; further: 0% is about no effect; nearly all actives have a fitted effect of over 55% in size; growth read by luminescence after 48 h
Cruzain inh noDet – cruzain (T. cruzi) inhibition without detergent; AID 1476; purified cruzain, Z-FR-AMC fluorescence, no detergent; actives 2.3% (n = 200,000); Potency, µM, for the others: max response, negative = inhibition, most hits filed as inhibitors; P25779;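 further: plate controls were enzyme without inhibitor for no effect and buffer without enzyme for full effect; nearly all actives have a fitted effect of over 40% in size; top concentration of the series not given in the record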
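Purified cruzain at 1.5 nM, pre-incubated 15 min with compound at room temperature in 100 mM sodium acetate pH 5.5, 5 mM DTT, 0.00005% Triton X-100. Reaction started with 2 uM Z-FR-AMC; AMC fluorescence increase over 60 s gives rate.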
MARV entry inh – Marburg virus entry inhibition; actives 1.8% (n = 300,000); AID 540276; Marburg virus pseudotyped entry inhibition, cell reporter; control for the full effect not named in the record; about a third of the inactives were read at about 46 µM; Potency, µM (series often up to 37.8 µM), for the others: top-dose activity change, negative = inhibition, hits mostly inhibitors; active = well fitted inhibition curve with a large enough effect; inconclusive = small, poorly fitted or top-dose-only effect, or effect the other way; inactive = flat fitted curve, though single readings scatter; tested in HEK293 cells; about a fifth of its hits are not listed in these tables; further: on the % scale 0 is the no-effect control and ±100 the full control effect; luciferase read-out
NS1 function inh – blocks influenza NS1 protein function; S. cerevisiae slowed by influenza A NS1, growth recovery by OD600; Potency, µM (titrated, usually from 46.1 µM), for inactives: top-dose activity, positive = more growth; AID 2326; actives 0.4% (n = 270,000); active means well fitted rising curve with a large enough effect; inconclusive means small, poorly fitted or top-dose-only effect; inactive means no such curve, though single readings can be large or run the other way; further: nearly all actives have a fitted effect of over 50% in size
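OD600 was taken as the measure of yeast growth restored by compound in an NS1-expressing S. cerevisiae strain. Cells had been washed out of glucose medium and diluted 1:100 into galactose -URA medium, pH 6.0.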
Starred values were filed as active, the others as inactive; ? = inconclusive; . = no result given; & = joins results of further samples; [ ] = another dose, or the depositor's remark. Unless noted, the call rests on the fitted dose curve; in most records, active means well fitted curve in the direction sought with a large enough effect; inconclusive means small, poorly fitted or top-dose-only effect, or another doubt; inactive means no such curve, though single readings can be large; an effect the other way counts as inactive or inconclusive. Potency means the concentration at half of the fitted maximal effect.

SMILES | 2A StopGo | Cruzain inh Det | RE007 growth inh | LASV entry inh | SARS PLP yeast | Cruzain inh noDet | MARV entry inh | NS1 function inh
Cc1nc(-c2ccc(C)c(N3CCN(C(=O)Nc4ccccc4C(F)(F)F)CC3)c2)no1 | -23% | -0.5% | . | -11%[46.1 µM] | . | ? | . | .
CCN(CC)C(=O)COc1c(-c2ccco2)oc2ccccc2c1=O | -21% | . | 6% | ? | -4% | . | 0% | 20%
O=C(CSc1nc(=O)n2ccccc2n1)N1CCCCCC1 | -21% | . | -15% | -12% | -4% | . | ? | .
CCc1ccccc1NC(=O)CN(c1cccc(OC)c1)S(C)(=O)=O | 28% | 1.3% | -1% | 10% | 4% | -3% | 2% | 2%
CC(=O)N1CC(C)Sc2ccc(S(=O)(=O)NCc3ccc(Cl)cc3)cc21 (stereo not given) | 11% | . | 9% | . | -8% | . | . | -8%
C=CCn1c(Cc2c(C)[nH]c3ccccc23)nnc1SCC(=O)NCc1ccc(F)cc1 | -28% | -5.5% | 3% | -26% | 4% | ? | ? | -2%
Cc1nc(C)c(C(=O)C2=C(O)C(=O)N(CCN(C)C)C2c2ccco2)s1 (stereo not given) | 5% | . | 6% | . | 0% | . | . | -1%
O=c1[nH]n(-c2ccccc2)c(=O)c2ccccc12 | -5% | -1.5% | -4% | 0% | 3% | -1% | -9% | -27%
Cc1cc(C)n(Cc2cnc(N3CCOCC3)s2)n1 | -18% | . | 5% | 15% | 1% | . | -12% | .
CC(C)c1ccc(NC(=O)c2cc(S(=O)(=O)NCc3ccccc3Cl)ccc2F)cc1 | 7% | -0.1% | . | ? | . | 0% | . | .
O=Cc1ccc(OCCCOc2cccc3cccnc23)cc1 | 21% | . | -17% | . | 0% | . | . | -35%
COc1ccc2cc(C3(C)NC(=O)N(CC(=O)NCCC4=CCCCC4)C3=O)ccc2c1 (stereo not given) | -16% | -12% | 3% | 3% | -12% | -10% | -21% | 5%

Overlap with the part before: 2 entries, followed by the next part.
SMILES | 2A StopGo | Cruzain inh Det | RE007 growth inh | LASV entry inh | SARS PLP yeast | Cruzain inh noDet | MARV entry inh | NS1 function inh
O=Cc1ccc(OCCCOc2cccc3cccnc23)cc1 | 21% | . | -17% | . | 0% | . | . | -35%
COc1ccc2cc(C3(C)NC(=O)N(CC(=O)NCCC4=CCCCC4)C3=O)ccc2c1 (stereo not given) | -16% | -12% | 3% | 3% | -12% | -10% | -21% | 5%
COc1ccc(CCC(=O)OCC(=O)c2ccc(C)cc2)cc1 | -23% | -5.8% | 6% | -3% | -23% | -8% | 5% | -2%
CCc1nc2ccccc2n1Cc1ccc(F)cc1 | -3% | . | 14% | -19%[46.1 µM] | -2% | . | -3%[46.1 µM] | .
COc1ccc(C2C(C(=O)Nc3ccccc3OC)=C(C)Nc3ncnn32)cc1 (stereo not given) | -7% | -1.5% | 5% | . | -1% | -6% | . | 5%
COC(=O)c1cc(NC(=O)c2ccco2)ccc1N1CCOCC1 | -2% | . | -10% | 0% | -1% | . | ? | -3%
CCCCN1Cc2cc(C(=O)c3cc(OC)ccc3O)cnc2NC1=O | -6% | 1.0% | 2% | 22% | -2% | ? | 4% | 2%
Cc1cccc(NC(=O)COC(=O)CCCC2=NS(=O)(=O)c3ccccc3N2)c1 | 3%&-13% | 1.7% | -5% | ? | -2% | -1% | 0%&0%[46.1 µM] | 6%
Cc1cc(C)n(CCNS(=O)(=O)c2ccc(Cl)cc2)n1 | 26% | . | -5% | 2%[46.1 µM] | 4% | . | 19%[46.1 µM] | 4%
C=CCON/C(CCC)=C1\C(=O)CC(C)(C)CC1=NC | 17% | . | 1% | -8% | 0% | . | 14%[46.1 µM] | -3%
C=CCN(CC(O)c1cccc([N+](=O)[O-])c1)C(C)CCc1ccccc1 (stereo not given) | ? | . | -6% | ? | 0% | . | ? | -6%
NNC(=O)c1csc(-c2cccc(C(F)(F)F)c2)n1 | 5% | . | -2% | -3% | 2% | . | 7% | .
CC(C(=O)Nc1nccs1)N1C(=O)C2CC=CCC2C1=O (stereo not given) | 2% | -3.6% | -2% | -5% | 0% | 4% | 4%[46.1 µM] | -2%
COc1ccccc1C(=O)NCCC(=O)Nc1nc2ccccc2[nH]1 | 0% | . | -6% | 25% | -4% | . | 19%[46.1 µM] | .
Cc1cc(C)n(-c2n[nH]c(C)c2[N+](=O)[O-])n1 | -3% | . | 182% | -5% | 0% | . | -1%[46.1 µM] | 1%
CC(C)(C)NC(=O)COc1ccc(CNn2nnnc2N)cc1 | 14% | 1.7% | 21% | 8% | -6% | 0% | -17% | 7%
O=C(OCc1nnc(-c2ccccc2)o1)c1cccnc1Cl | 49%[activator] | . | 6% | 17% | 2% | . | 15%[46.1 µM] | 4%
Nc1ccccc1C(=O)NCc1ccc(F)cc1 | -11% | . | -6% | . | 0% | . | . | 12%
O=C(O)COc1ccc(Br)cc1C(c1c(C(=O)O)[nH]c2ccccc12)c1c(C(=O)O)[nH]c2ccccc12 | -8% | . | 17% | . | 6% | . | . | 10%
CC1(C)C(=O)OC(C(=O)c2ccc(Cl)cc2)C(C)(C)C1=O (stereo not given) | -18% | -4.1% | -26% | 2% | -7% | 15% | ? | -7%
O=C(CSc1nc(=O)n(CCCN2CCOCC2)c2c1CCCC2)Nc1cccc(Cl)c1 | 3% | . | -2% | 5%[46.1 µM] | 4% | . | ? | .
CSc1nc2c(c(=O)n1C)SC(C)C2 (stereo not given) | -8% | -6.0% | -10% | . | -5% | -3% | . | -2%
CCOC(=O)C(=O)/C(=C\N(C)C)c1onc(-c2ccccc2)c1C(=O)OC | 0% | -2.7% | -3% | 1% | 5% | -5% | -2% | -3%
COc1ccc(S(=O)(=O)/N=C2/NC(=O)/C(=C\c3ccco3)S2)cc1 | 32%[activator] | -11% | -12% | 2% | -28% | 6% | ? | -3%
O=C(COc1ccccc1F)Nc1ccc2c(c1)CCC2 | 32%[activator] | . | -16% | 4% | -2% | . | ? | .
C/C(=N\NC(=O)CCc1ccc(S(=O)(=O)N2CCOCC2)cc1)c1ccc(Br)cc1 | -12% | . | -6% | ? | 1% | . | -14%[46.1 µM] | .

Part of the list above in order of length of the SMILES, descending:
SMILES | 2A StopGo | Cruzain inh Det | RE007 growth inh | LASV entry inh | SARS PLP yeast | Cruzain inh noDet | MARV entry inh | NS1 function inh
O=C(O)COc1ccc(Br)cc1C(c1c(C(=O)O)[nH]c2ccccc12)c1c(C(=O)O)[nH]c2ccccc12 | -8% | . | 17% | . | 6% | . | . | 10%
C/C(=N\NC(=O)CCc1ccc(S(=O)(=O)N2CCOCC2)cc1)c1ccc(Br)cc1 | -12% | . | -6% | ? | 1% | . | -14%[46.1 µM] | .
O=C(CSc1nc(=O)n(CCCN2CCOCC2)c2c1CCCC2)Nc1cccc(Cl)c1 | 3% | . | -2% | 5%[46.1 µM] | 4% | . | ? | .
CCOC(=O)C(=O)/C(=C\N(C)C)c1onc(-c2ccccc2)c1C(=O)OC | 0% | -2.7% | -3% | 1% | 5% | -5% | -2% | -3%
COc1ccc(S(=O)(=O)/N=C2/NC(=O)/C(=C\c3ccco3)S2)cc1 | 32%[activator] | -11% | -12% | 2% | -28% | 6% | ? | -3%
C=CCN(CC(O)c1cccc([N+](=O)[O-])c1)C(C)CCc1ccccc1 (stereo not given) | ? | . | -6% | ? | 0% | . | ? | -6%
CC1(C)C(=O)OC(C(=O)c2ccc(Cl)cc2)C(C)(C)C1=O (stereo not given) | -18% | -4.1% | -26% | 2% | -7% | 15% | ? | -7%
COc1ccccc1C(=O)NCCC(=O)Nc1nc2ccccc2[nH]1 | 0% | . | -6% | 25% | -4% | . | 19%[46.1 µM] | .
Cc1cc(C)n(-c2n[nH]c(C)c2[N+](=O)[O-])n1 | -3% | . | 182% | -5% | 0% | . | -1%[46.1 µM] | 1%
Cc1cc(C)n(CCNS(=O)(=O)c2ccc(Cl)cc2)n1 | 26% | . | -5% | 2%[46.1 µM] | 4% | . | 19%[46.1 µM] | 4%
C=CCON/C(CCC)=C1\C(=O)CC(C)(C)CC1=NC | 17% | . | 1% | -8% | 0% | . | 14%[46.1 µM] | -3%
NNC(=O)c1csc(-c2cccc(C(F)(F)F)c2)n1 | 5% | . | -2% | -3% | 2% | . | 7% | .
O=C(COc1ccccc1F)Nc1ccc2c(c1)CCC2 | 32%[activator] | . | -16% | 4% | -2% | . | ? | .
Nc1ccccc1C(=O)NCc1ccc(F)cc1 | -11% | . | -6% | . | 0% | . | . | 12%
CSc1nc2c(c(=O)n1C)SC(C)C2 (stereo not given) | -8% | -6.0% | -10% | . | -5% | -3% | . | -2%
